eIF4H inh: inhibitors of RNA binding by human eIF4H; inhibition, % at 35 µM; hit rate 0.94% among 290,000; AID 2012; eIF4H fluorescence polarization binding assay;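 active means 50% or more with normal probe brightness, or confirmed in later tests; inconclusive means above 50% with abnormal brightness, or retests that disagree; inactive means below 50% or failed in later tests; about a fifth of its hits are not listed in these tables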;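 further: calls also rest on retests at 20 µM and on dose response follow-up; 0% = protein and probe with vehicle and 100% = probe without protein; strong numbers were not always called active; many hits fall short of the cut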
HIV Env fusion: blocks HIV Env-driven cell-cell fusion | HeLa-JRFL Env/CEM21 cell fusion, luciferase | AID 651610 | inhibition, % at 12.3 µM | hit rate 1.1% among 360,000;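 active means mean replicate inhibition score of at least 50 and every replicate individually at or above 50; inconclusive means only one of the two criteria met; inactive means mean below 50 and not all replicates reaching 50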;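 further: 0% = plate neutral controls and 100% = maraviroc near 300 nM; one replicate is shown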
Rce1 inh: yeast Ras-converting enzyme inhibition | yeast membranes, quenched prenylated peptide cleavage fluorescence | Q03530 | calls only | hit rate 0.27% among 290,000 | AID 2563;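 active means fall in fluorescence gain of 50% or more versus controls, with final raw signal at or below 3038400; inconclusive means same 50% fall but final raw signal above 3038400; inactive means fall in fluorescence gain under 50%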;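 further: plate controls were neutral control wells for no effect and wells lacking membranes for full effect; tested at 10 µM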
Target sequence (Q03530 whole entry, looked up): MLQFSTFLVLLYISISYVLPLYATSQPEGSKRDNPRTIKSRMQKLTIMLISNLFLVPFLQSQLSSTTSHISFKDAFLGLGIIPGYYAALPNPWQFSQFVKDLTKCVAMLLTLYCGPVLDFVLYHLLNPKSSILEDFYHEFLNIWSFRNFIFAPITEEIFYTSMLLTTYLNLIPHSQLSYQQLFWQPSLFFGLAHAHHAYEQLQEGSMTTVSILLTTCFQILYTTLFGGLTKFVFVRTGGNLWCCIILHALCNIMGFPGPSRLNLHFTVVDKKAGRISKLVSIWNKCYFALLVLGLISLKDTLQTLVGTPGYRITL
PABP FP inh: blocks human PABP binding to poly(A) RNA | P11940 | fluorescence polarization | inhibition, % at 35 µM | hit rate 1% among 290,000 | AID 2014;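 active means 50% or more with normal probe brightness, or confirmed in later tests; inconclusive means above 50% with abnormal brightness, or retests that disagree; inactive means below 50% or failed in later tests; about a fifth of its hits are not listed in these tables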;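 further: calls also rest on retests at 20 µM and on dose response follow-up; controls were probe without protein and protein plus probe with vehicle; some compounds called inactive have numbers as strong as hits; many hits fall short of the cut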
CSC inhib: cancer stem cell inhibition; cancer stem cell-like cells viability, luminescence; inhibition, % at 7.5 µM; AID 2717; hit rate 1.1% among 300,000;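 active means mean at 75% or more and at least half the replicates too; inconclusive means mean and replicates disagree; tested in HMLE shEcad cells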;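 further: 0% = median of negative and 100% = median of positive control wells; the first replicate is given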
MT1-MMP act inh: inhibitors of human MT1-MMP activation; AID 651647; GFP/RFP ratio change, % at 20 µM; HT1080 RFP-PRO-GFP cells, GFP/RFP ratio fluorescence, overnight; percent of plate control window, DMSO zero; hit rate 0.061% among 360,000;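 active means GFP/RFP ratio change of at least 30% with cell ATP level not reduced by more than half and red fluorescence within 50% of control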; further: strong numbers were not always called active
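Assay system: HT1080 RFP-PRO-GFP cells | Dosing: 20 µM single dose, 1% DMSO | Incubation: Cells overnight before dosing, compound overnight, 37 °C, 5% CO2 | Evaluation: GFP/RFP fluorescence ratio | Control set: DMSO-only wells and HT1080 RFP-L50D-GFP cell wells as references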
UUG fidelity: modulators of start codon recognition fidelity in yeast; AID 602363; hit rate 0.13% among 350,000; S. cerevisiae UUG-firefly luciferase reporter, luminescence/redox ratio; activity score, % at 18.7 µM;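 active means replicate mean at a twofold rise or more, about +100% in these data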;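 further: firefly luciferase made from a UUG start codon reports start codon fidelity; reporter light over untreated wells divided by growth signal over untreated wells; some hits fall short of that in this replicate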
MT1-MMP act inh RFP: second read-out of MT1-MMP act inh, no call of its own (marks repeat the call); RFP signal change, %; measured here: RFP expression control read;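 0 = vehicle wells; hits needed this value within 50% of zero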
Active calls of the source: *; i = inactive; ? = inconclusive; . = no result given.

Structure	eIF4H inh	HIV Env fusion	Rce1 inh	PABP FP inh	CSC inhib	MT1-MMP act inh	MT1-MMP act inh RFP	UUG fidelity
NC(=O)CN1C(=O)C(O)(CC(=O)/C=C\c2ccc3c(c2)OCO3)c2ccccc21 (configuration not stated)	4	0	i	-9	-4	-10	-9	.
N/C(=N\OC(=O)c1ccc(Cl)cc1[N+](=O)[O-])c1ccccn1	-5	-124	i	-12	-2	2	2	-61
CN(CCc1ccccc1)C(=O)c1ccc(NC(=O)Cc2ccc(NC(=O)C3CCN(C(=O)c4ccccc4)CC3)cc2)cc1	.	0	.	.	.	-6	-22	-3
COc1ccc(CC(=O)Nc2ccc(S(=O)(=O)Nc3cc(OC)nc(OC)n3)cc2)cc1	11	-2	i	27	12	1	3	5
O=c1c(Br)c(N2CCCCC2)cnn1-c1ccccc1	-13	-29	i	-11	4	-1	-1	.
CC(Sc1nc(N)cc(N)n1)C(=O)Nc1ccc(N2CCOCC2)cc1 (configuration not stated)	.	.	.	.	-1	0	0	-5
CS(=O)(=O)NCCNc1ccc(Cl)cc1[N+](=O)[O-]	1	11	i	6	-12	5	2	.
COc1ccccc1C(=O)C1CCCN(C(=O)c2cccc(Cn3cccn3)c2)C1 (configuration not stated)	2	-7	i	-14	-10	-3	-6	-8
COC(=O)C1(C(=O)OC)NOC2C(=O)N(N(C)c3ncc(C(F)(F)F)cc3Cl)C(=O)C21 (configuration not stated)	18	5	i	-2	.	1	2	.
COC(CC(=O)NNC(=S)Nc1ccc(Cl)cc1)OC	0	-7	i	1	-12	0	2	-20
COc1ccc(Cc2c(-c3ccco3)nc3c(C)cc(Br)cn23)c(C)c1	.	73*	.	.	.	-6	-20	12
O=C(N/N=C1\CCCc2ccccc21)c1ccc([N+](=O)[O-])cc1Cl	3	-82	i	8	-6	2	9	-8
S=c1[nH]nc(-c2ccncc2)n1/N=C/C=C/c1ccccc1	-1	9	i	4	-2	-9	-9	.
Cc1ccc(C2(c3ccc(C)cc3)CC2C(=O)NCc2cccnc2)cc1 (configuration not stated)	-3	2	i	7	-16	-4	0	.
C=CCN(c1ccccc1)S(=O)(=O)c1cccc(C(=O)NCc2ccco2)c1	.	2	.	.	14	7	-1	-8
CS(=O)(=O)N(CC(=O)NCc1ccc2c(c1)OCO2)c1ccccc1	-5	-21	i	-3	12	-1	0	.
Cc1cc(C(=O)CN2C(=O)C(=O)N(C3CCCC3)C2=O)c(C)n1-c1ccc(F)cc1	-8	7	i	-7	10	-1	0	-2
Cc1nn(CC(=O)N2CCCC2)c(=O)c2cc3cc(F)ccc3n12	.	19	i	.	-31	0	5	-8
CCN(CC(=O)Nc1ccc(NC(C)=O)cc1)C(=O)/C=C/c1cn(-c2ccccc2)nc1-c1ccc(C)cc1	-8	.	i	-9	9	2	-5	-20
CCC(C(=O)OCCN(CC)CC)c1ccccc1 (configuration not stated)	16	5	i	-5	-23	-3	-5	-16
Cc1onc(-c2c(Cl)cccc2Cl)c1C(=O)NC(=S)N1CCOCC1	-12	7	i	-6	-4	2	3	-36
O=C(N/N=C/c1ccco1)c1cccc(NC(=O)c2cccc(Cl)c2)c1	-12	-6	i	0	-7	-2	0	-6
OC(COCC1COc2ccccc2O1)CN1CCCCC1 (configuration not stated)	-6	9	i	-2	-17	-1	1	.
C=CCNC(=O)C1CCN(S(=O)(=O)c2cccs2)CC1	13	-16	i	5	-4	-2	2	-7
Cc1cccc(CN2CCN(CC(=O)O)C2=O)c1	2	2	i	9	.	-6	0	-11
Cc1ccc2c(CN(C)Cc3ccc(OC(F)F)cc3)cc(=O)oc2c1C	-7	7	i	-2	21	3	-10	-2
O=[N+]([O-])c1cccc(CN2C[C@@]34C=C[C@@H](C[C@@H]3S2(=O)=O)O4)c1	-1	-24	i	-12	-2	5	1	-13
O=C(c1cc(-c2cccc(Cl)c2)nc2ccccc12)N1CCN(c2ccccn2)CC1	0	4	i	13	36	3	-6	1
CCN(C[C@H]1N[C@@](CC)(C(=O)OC)[C@H]2C(=O)N(C)C(=O)[C@@H]12)C(=O)c1ccccc1	.	-9	.	.	.	4	6	-6
CCOC(=O)C1CCCN(C(=O)c2ccc(C)c(F)c2)CC1 (configuration not stated)	.	17	.	.	.	6	4	-9
Cc1nc2ccc(S(=O)(=O)NCC(=O)N3CCC(C)CC3)cc2s1	-3	.	i	-8	-7	4	-4	2
O=C(Nc1nc2c(s1)CCc1ccccc1-2)c1ccco1	-2	-104	i	0	17	-4	-10	-7
C/C(CC(=O)Nc1ccccc1Br)=N\NC(=O)C(=O)N1CCCC1	-4	-7	.	-7	2	-2	4	-18
COC(=O)C1=C(C)N(Cc2ccccc2)C(=O)/C1=C\c1ccco1	8	16	i	7	-2	-2	5	.
CCCN1CCN(C(=O)Cn2nc(C)n3c(cc4c(OC)cccc43)c2=O)CC1	.	-8	.	.	.	0	0	0
Cc1cc(SCC(=O)N(C)C2CCS(=O)(=O)C2)nc2c(C)cccc12 (configuration not stated)	3	-2	.	-3	-3	-2	0	.
O=C(Nc1ccc(Oc2cccc(C(F)(F)F)c2)nc1)c1ccccc1	-10	11	i	-4	5	-2	-25	-9
CC(=O)Nc1ccc(NC(=S)NC(=O)c2cc3ccccc3o2)cc1	8	-6	i	1	-12	5	5	.
CCOc1ccc(N(C)S(=O)(=O)c2cc(-c3cc(C)no3)ccc2OC)cc1	7	15	i	-1	15	1	-10	10
CCN(CCn1cccn1)Cc1ccccc1OCC(O)CN1CCc2ccccc2C1 (configuration not stated)	6	-20	i	9	21	1	-1	.
CNc1ncnc2c1cnn2C1CCCCO1 (configuration not stated)	.	-10	.	.	.	3	3	-11
O=C(NCCCN1CCOCC1)NC12CC3CC(CC(C3)C1)C2	-9	.	i	-8	-2	4	8	-15
Cc1ccc(-c2nc(CS(=O)CC(=O)N3CCN(c4ccccc4)CC3)c(C)o2)cc1 (configuration not stated)	.	13	i	.	-1	8	-3	-10
Cc1nnc(SCC(=O)Nc2ncc3c(n2)CC(C)(C)CC3=O)s1	2	39	i	-12	-14	2	1	-12
Cc1cc(C)c(OCC(=O)OCC(=O)NC2CCC(C)CC2)c(C)c1 (configuration not stated)	.	-8	i	.	-12	7	9	-13
Cn1cccc1C(=O)OCC(=O)Nc1ccc2c(c1)CCC2	-1	-79	i	-11	.	-4	2	-10
Cc1cc(=O)oc2ccc(OCC(=O)O)cc12	0	0	i	22	-6	1	0	-8
COc1cc(C2C(C(C)=O)=C(O)C(=O)N2Cc2ccccc2)ccc1O (configuration not stated)	5	26	i	9	-2	2	-1	-2
COc1ccc(C(=O)O/N=C(\C)c2ccccc2)cc1	7	.	i	4	-9	-7	1	-87
N#C/C=C1\n2c(nc3ccccc32)OC12CCCCC2	-8	-6	i	-3	-7	0	-1	.
Cc1[nH][nH]c(=O)c1C(c1ccc(Cl)cc1)c1c(C)[nH][nH]c1=O	6	6	i	2	-18	1	3	-19
CC1(C)Cc2nc3nc(SCC(=O)NCCc4ccccc4)n(-c4ccccc4)c(=O)c3cc2CO1	2	-74	i	2	-15	-1	1	-12
O=C(N/N=C/c1ccccc1Br)C1CC1	-7	?	i	7	13	3	3	-14
Cc1ccccc1OCC(=O)Nc1ccc(N2CCN(C)CC2)c(Cl)c1	-5	2	i	-11	-1	-1	0	-15
O=S(=O)(NCC1CCCO1)c1ccc(S(=O)(=O)N(Cc2ccc(F)cc2)Cc2ccco2)cc1 (configuration not stated)	-5	14	i	6	8	-1	-6	0
COc1ccc(N2CCN(/C(=N\S(=O)(=O)c3ccccc3)Nc3nc(C)cc(C)n3)CC2)cc1	-6	-1	i	4	.	-2	-1	-8

Carrying on.
Structure	eIF4H inh	HIV Env fusion	Rce1 inh	PABP FP inh	CSC inhib	MT1-MMP act inh	MT1-MMP act inh RFP	UUG fidelity
COCCNC(=O)c1n[nH]c2ccccc12	-4	-12	i	-18	-14	0	5	-9
COc1ccc(-c2cc(C(=O)NC3CCCC3)no2)cc1	4	-47	i	6	-7	2	-3	-11
O=C(CN1CCN(Cc2ccccc2)CC1)Nc1cccc(Br)c1	-3	11	i	-13	1	1	3	-4
O=C1c2ccc(Cl)cc2S(=O)(=O)c2cccc(C(=O)N3CCC(Cc4ccccc4)CC3)c21	.	-1	.	.	123*	-1	5	-6
O=S(=O)(c1ccccc1)c1ccc(NCc2ccco2)cc1	5	-51	i	-4	7	1	-4	-13
Cc1nn(Cc2ccc(F)cc2)c2sc(C(=O)Nc3ccc(N4CCOCC4)cc3N3CCOCC3)cc12	7	16	i	-5	24	-6	-18	.
O=C1C2C3C=CC(C3)C2C(=O)N1CC1CCCO1 (configuration not stated)	0	-14	i	-7	-13	-3	2	-16
Cc1ccnc(NC(=O)c2oc3ccccc3c2C)c1	.	-83	i	.	19	-3	2	-43
CCN1C(=O)C(CC(=O)Nc2ccc(OC)cc2)N(Cc2cccnc2)C1=S (configuration not stated)	0	-16	i	-5	.	6	2	-18
Cc1cccc(N2C(=NC(=O)c3ccccc3)SC3CS(=O)(=O)CC32)c1 (configuration not stated)	-3	-11	.	-4	-3	-4	1	0
O=[N+]([O-])c1cc(-c2nc3nc4ccccc4nc3n2CCc2ccccc2)cc([N+](=O)[O-])c1	-3	-3	i	-2	13	5	-1	.
COc1cccc2cc(C(=O)N3CCN(C/C=C/c4ccccc4)CC3)c(=O)oc12	-6	-8	i	-2	-6	-3	-1	-11
CCCC1=NN2C(=N)/C(=C\c3cc(C)n(Cc4ccccc4)c3C)C(=O)N=C2S1	-15	5	i	5	4	3	1	-13
c1ccc(CCc2ccncc2)cc1	-1	0	i	0	-7	-4	-1	-9
CCCS(=O)(=O)N1CCc2ccc(NC(=O)c3ccccc3Cl)cc2C1	-1	-13	i	-7	2	-2	-6	0
CCC(=O)N1CCc2cc(S(=O)(=O)CCC(=O)NCc3cccs3)ccc21	-9	.	i	5	7	9	2	-4
O=[N+]([O-])c1ccc(COc2cccnc2)cc1	-1	-13	i	-4	7	-3	3	.
Cc1cc(C)c2[nH]c3nc(SCC(=O)O)nnc3c2c1	-11	-29	i	-1	-1	4	1	-24
C=CCN1C(=O)C(O)(CC(=O)c2ccco2)c2cc(Br)ccc21 (configuration not stated)	8	-37	i	-8	30	3	7	12
CSC[C@H]1CN(c2ccc(Br)cc2)C(=O)[C@@H]1CC(=O)Nc1ccc(Br)cc1	.	-3	.	.	.	6	5	-16
CCOC(=O)N1CCN(C(=O)c2ccc3c(=O)n(Cc4ccc(Cl)cc4)c(=S)[nH]c3c2)CC1	0	4	i	-3	46	-2	-5	-14
O=C(CCNC(=O)N1CC(=O)Nc2ccccc21)NCc1ccc(F)cc1	-4	5	i	1	-6	3	5	-27
Nc1nc(NCc2ccccc2)nc(Nc2cccc(F)c2)c1[N+](=O)[O-]	2	-37	i	-7	-9	7	1	-24
C=CCn1c(-c2sccc2C)n[nH]c1=S	-4	10	i	0	10	0	2	.
Cc1cc(C)c(S(=O)(=O)c2ccccc2C)c(Cl)n1	-2	5	i	-12	-6	2	4	-8
Cc1ccc(C(OCC(O)CNCc2ccc(F)cc2)c2ccccc2)cc1 (configuration not stated)	-3	26	i	-8	50	-5	-6	-6

Source: PubChem BioAssay (several laboratories)
